Menin-MLL FL inh – menin-MLL binding inhibition, fluorescein peptide | Fluorescence polarization, fluorescein-MLL peptide displacement from menin | FP activity change, % at 61.4 µM | 290,000 tested, under 10 active | AID 1766; inconclusive = falling polarisation curve, or a change in total fluorescence; inactive = total fluorescence flat and polarisation flat or rising; no compound was filed as active; the % refers to the polarisation; negative = inhibition;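 also: % of control where 0% means no effect; inhibitors lower the polarisation; unlabelled MLL peptide was the positive control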
TRPML1 inh – human mucolipin-1 channel inhibition; AID 624415; actives 0.02% (n = 390,000); Q9GZU1; TRPML1-inducible cells, Ca2+ dye fluorescence, FDSS; hits give low values; inhibition of EC80 agonist-evoked calcium signal; activity change, negative = inhibition, % (concentration not given with the values); in the data active means activity change below about -50%; inconclusive means about -30% to -50%; inactive means above about -30%;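 also: stimulus is agonist 54-4 at its EC80 concentration; % is scaled to controls: 0 for no effect and ±100 for the full control effect; compound concentration not given in the record; the text of the record puts the active cut at -80%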
Target sequence (Q9GZU1 whole entry, looked up): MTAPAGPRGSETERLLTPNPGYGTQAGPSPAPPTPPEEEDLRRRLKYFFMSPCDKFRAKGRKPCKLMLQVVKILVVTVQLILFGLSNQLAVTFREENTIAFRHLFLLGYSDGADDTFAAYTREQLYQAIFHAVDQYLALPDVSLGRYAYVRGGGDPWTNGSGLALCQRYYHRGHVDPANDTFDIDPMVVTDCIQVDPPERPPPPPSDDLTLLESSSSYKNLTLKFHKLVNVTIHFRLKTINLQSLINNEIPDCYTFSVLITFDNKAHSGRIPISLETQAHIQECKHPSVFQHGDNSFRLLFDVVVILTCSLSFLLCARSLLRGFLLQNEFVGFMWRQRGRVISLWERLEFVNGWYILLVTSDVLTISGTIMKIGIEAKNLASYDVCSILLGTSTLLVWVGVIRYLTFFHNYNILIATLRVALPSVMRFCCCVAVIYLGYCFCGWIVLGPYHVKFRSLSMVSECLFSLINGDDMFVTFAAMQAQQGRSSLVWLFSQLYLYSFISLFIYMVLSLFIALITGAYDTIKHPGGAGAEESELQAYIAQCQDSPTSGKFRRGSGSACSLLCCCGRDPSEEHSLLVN
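Calcium fluorescence in TRPML1-DL cells induced overnight with Tet: a 110 s read after compound pin addition, then a 110 s antagonist read after challenge with 54-4 at 4 uM final (EC80).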
TRPML1 agonist – human mucolipin-1 channel agonism. AID 624414. actives 0.12% (n = 410,000). activation, % (no concentration beside the values). TRPML1-expressing cells, Ca2+ dye fluorescence, FDSS; host cell line not named in the record; reference of the full effect not given here; in the data active = activation above about 50%; inconclusive = about 30% to 50%; inactive = below about 30%; also: 0% is about no effect; the text of the record puts the active cut at 80%
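Calcium fluorescence on an FDSS kinetic reader gave the read-out. Tet-induced TRPML1-DL cells were plated overnight, dye-loaded (Ca8 with quencher, 45-90 min, room temperature, dark), then read 110 s after compound addition, and again 110 s after 4uM final 54-4 (EC80).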
ClpP mod – qHTS Assay for Activators of ClpP; ATP-dependent Clp protease proteolytic subunit (Bacillus subtilis (strain 168)), P80244; purified B. subtilis ClpP, FRET peptide cleavage, 20 min; Potency, µM (highest dose often 57.5 µM), inactives show at the highest dose activity change, negative = active; actives 1.9% (n = 340,000); AID 651965, 2013; active = well fitted falling curve with a large enough effect; inconclusive = small, poorly fitted or top-dose-only effect; inactive = no such curve, though single readings can be large or run the other way; also: potency is read from the fitted curve at half-maximal effect; the source files actives as falling curves though it sought activators and does not explain the sign; nearly all actives have a fitted effect of over 65% in size; many hits overshoot -100%
Target sequence (P80244 whole entry, looked up): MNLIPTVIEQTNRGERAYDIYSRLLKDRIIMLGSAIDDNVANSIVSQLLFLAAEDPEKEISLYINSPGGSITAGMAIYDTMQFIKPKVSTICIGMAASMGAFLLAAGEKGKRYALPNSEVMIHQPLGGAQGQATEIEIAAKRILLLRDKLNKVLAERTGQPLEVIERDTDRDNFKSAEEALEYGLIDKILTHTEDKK
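ClpP 10 microg/mL final, pH 8 Tris/KCl buffer with BSA, glycerol, Tween-20; compound pinned in; FRET-FV substrate; RT 20 min; Ex320/Em430; ΔFRET vs ADEP 5.8 microM, DMSO, no enzyme.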
gsp ag – agonists of gsp mutant (McCune-Albright syndrome); Potency, µM (titrated, usually from 76.9 µM), for the others: at the highest dose activation (cAMP increase), actives largely listed as activators; gsp mutant cells, cAMP HTRF, 30 min; control for the full effect not named in the record; AID 624287; actives 0.13% (n = 340,000); active = well fitted activation curve with a large enough effect; inconclusive = small, poorly fitted or top-dose-only effect, or another doubt; inactive = no such curve, though single readings can be large or run the other way; cell line not stated here;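 also: phosphodiesterase inhibitor Ro 20-1724 added with compounds to block cAMP breakdown; potency is read from the fitted curve at half-maximal effect; nearly all actives have a fitted effect of over 60% in size; about a fifth of the inactives were tested at one dose only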
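Cells in DMEM/10% FBS with G418 were pretreated with compounds in DMSO plus […] (300 uM stock) for 30 min at 37C. cAMP was measured by HTRF (cAMP-d2 plus anti-cAMP antibody-K) after 30 min at room temperature.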
gsp antagonist – antagonizes gsp, the McCune-Albright syndrome mutation; actives 0.4% (n = 340,000); Potency, µM (highest dose often 76.9 µM), inactives show at the highest dose activity change, negative = inhibition, hits mostly inhibitors; gsp-mutant cells, cAMP HTRF, 30 min; control for the full effect not named in the record; active = falling curve of any shape with a large fitted effect; inconclusive = falling curve, mostly with a smaller effect; inactive = flat or rising curve; cell line not stated here;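 also: intracellular cAMP measured with PDE inhibitor Ro 20-1724 present during compound exposure; potency is read from the fitted curve at half-maximal effect; % is scaled to controls: 0 for no effect and ±100 for the full control effect; nearly all actives have a fitted effect of over 65% in size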
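Cells, 2000/well, grown 16–24 h in DMEM 10% FBS with 0.5 mg/ml G418, then compounds plus […] (300 uM addition stock), 30 min at 37C. cAMP read by HTRF (cAMP-d2 and anti-cAMP antibody-K in lysis buffer) after 30 min RT.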
* = called active by the depositor; ? = inconclusive; . = not tested or not shown; [ ] = remark or other dose.

SMILES | Menin-MLL FL inh | TRPML1 inh | TRPML1 agonist | ClpP mod | gsp ag | gsp antagonist
CCN(CC)c1ccc(-c2nc(-c3ccncc3)no2)cc1[N+](=O)[O-] | . | 1 | -0.5 | 2.3% | . | .
O=C(Cc1ccccc1Cl)Nc1nc2ccccc2[nH]1 | -0.6 | -4 | 0.7 | . | 17%[15.4 µM] | -1%
CC(=O)c1cc(C#N)c(Oc2cc(C)cc(C)c2)nc1C | -0.6 | 9 | 2.2 | -0.8% | -63%[inhibitor] | -8%
O=C(C[n+]1ccccc1)Nc1ccccc1[N+](=O)[O-] | 1.1 | -3 | -0.1 | . | -11% | -3%
OCCC1CN(CC#Cc2ccccc2)CCN1Cc1ccccc1F (configuration not stated) | -6.5 | -19 | -0.3 | . | ? | 9%
CCc1nnc2c(Nc3ccccc3Br)nc3ccccc3n12 | . | 14 | -0.4 | -2.4% | . | .
CN1OC[C@@H]2CN[C@H](c3ccc(-c4cc5ccccc5o4)cc3)C[C@@H]21 | . | 1 | -0.6 | 3.8% | 43% | .
O=C(O)c1cc(Cl)c(Cl)cc1C(=O)NCc1ccco1 | 5.0 | 2 | -0.5 | . | -24% | 3%
CC(=O)c1cccc(NC(=O)C(CC(C)C)NC(=O)C2CCCCC2)c1 (configuration not stated) | 0.4 | -2 | 1.9 | -1.0% | 18% | -12%
CC(C)N1CCN(CCCc2ccccc2)CC1CCO (configuration not stated) | 0.1 | 2 | 0.2 | -1.3% | 41% | 7%
CC(NC(=O)CCc1ccccc1)c1cc2c(cc1Cl)OCCO2 (configuration not stated) | -1.3 | 2 | 1.5 | -1.7% | 8% | -13%
COc1ccc([N+](=O)[O-])cc1NCc1ccco1 | -2.5 | 8 | -0.3 | 2.1% | 20% | -8%
Cc1cccc(C(=O)NNC(=O)C2CCN(C(=O)OC(C)(C)C)CC2)c1 | 6.1 | -7 | 0.2 | -0.7% | -28% | 15%
Cc1ccc2c(=O)cc(C(=O)Nc3sc4c(c3C(=O)NCC3CCCO3)CCCC4)oc2c1C (configuration not stated) | . | 6 | 0.7 | 1.0% | . | .
CCC(Oc1ccccc1F)C(=O)NCCN1CCOCC1 (configuration not stated) | 0.2 | -3 | 1.3 | . | -32%[inhibitor] | 14%
C=CCn1c(=S)[nH]c2ccc(Br)cc2c1=O | 4.4 | 3 | -1.0 | 1.8% | -41%[inhibitor] | 6%
CCN1CCN(S(=O)(=O)c2cc(OCC(=O)NC3CCCCC3)c(C)cc2Cl)CC1 | -0.1 | 6 | 1.0 | -3.5% | 22% | -18%
COc1ccc(OCCSc2nc(N)cc(N)n2)cc1 | ? | 2 | -0.1 | -2.6% | -2% | -1%
CCCCn1c(N)c(N(CCOC)C(=O)c2ccc(F)c(S(=O)(=O)N3CCOCC3)c2)c(=O)[nH]c1=O | . | 5 | -0.6 | -0.8% | -8% | 11%
Cn1c(=O)c2c(nc(N3CCc4ccccc4C3)n2Cc2ccc(Br)cc2)n(C)c1=O | -8.4 | 7 | -0.6 | -1.4% | -2% | 9%
O=C(OCn1nnc2ccccc2c1=O)c1ccc(Br)o1 | -0.8 | 14 | -0.5 | 1.6% | 0% | 2%
O=C(O)CCC(=O)N1CCC[C@H]1C(=O)O | -0.6 | -3 | -0.9 | 0.7% | . | 11%
Cc1c(NC(=O)C(C)OC(=O)CCC2CCCC2)c(=O)n(-c2ccccc2)n1C (configuration not stated) | -1.9 | -2 | 0.1 | 1.3% | -5% | 14%
CCN(c1ccc(Cl)cc1)S(=O)(=O)c1nnc(NC(=O)c2ccccc2C)s1 | . | 11 | 1.3 | -5.0% | . | .
CCCCn1nc2cc(C(=O)NCc3cc(C(F)(F)F)cc(C(F)(F)F)c3)ccc2c1OCC | -1.1 | -26 | 0.7 | 3.3% | 4% | -3%

The list goes on:
SMILES | Menin-MLL FL inh | TRPML1 inh | TRPML1 agonist | ClpP mod | gsp ag | gsp antagonist
OC(COc1ccccc1Br)CN1CCNCC1 (configuration not stated) | -4.0 | 17 | 0.1 | . | -3% | 9%
Cc1cc(=O)oc2c3c(cc(OCC(=O)NCC4CCC(C(=O)O)CC4)c12)OC(C)(C)CC3 (configuration not stated) | -1.0 | . | . | 4.7% | . | -2%
Cc1cccc(NC(=O)c2ccc(NC(C)c3ccccc3)c([N+](=O)[O-])c2)n1 (configuration not stated) | 2.2 | 12 | -0.2 | . | 11% | 8%
CC(CCN1CCC(n2nccc2NC(=O)c2ccccc2Cl)CC1)c1ccccc1 (configuration not stated) | . | -8 | -0.3 | -0.1% | 0% | 7%
COc1ccc(-c2cc(=NC(CC(C)C)C(=O)O)c3cc(C)ccc3o2)cc1 (configuration not stated) | 3.0 | -2 | 1.1 | 11% | 2%[15.4 µM] | -12%
CC(C)CC1Nc2ncnc(N3CCCCC3)c2N(Cc2ccc(Br)cc2)C1=O (configuration not stated) | . | 13 | 0.9 | -2.4% | 13% | -3%
CC(=O)Nc1ccc(S(=O)(=O)NNC(=O)COc2ccc(Cl)cc2Cl)cc1 | 1.6 | 16 | 0.8 | . | 1%[15.4 µM] | -3%
CCc1ccccc1NC(=O)C(=O)NCC(c1cccnc1)N1CCN(c2ccccc2F)CC1 (configuration not stated) | . | 5 | -0.5 | 1.0% | . | .
Cc1ccc(CNC(=S)Nc2ccc(OC(F)F)cc2C)cc1 | 3.5 | -8 | 1.9 | 1.3% | -53%[inhibitor] | -3%
CC1(C)CC(=O)C(C=NCC(N)=O)=C(O)C1 | -0.2 | 5 | 0.2 | 0.8% | -1% | 16%
CCOc1ccc(Nc2ccc([N+](=O)[O-])c3nonc23)cc1 | 5.8 | . | . | -0.9% | -6% | ?
N/C(=N\NS(=O)(=O)c1ccc(Cl)cc1)c1ccccn1 | . | -5 | -0.8 | . | 16% | -7%
CC1CN(Cc2nc3c(c(=O)n(C)c(=O)n3C)n2CC(O)CO)CC(C)O1 (configuration not stated) | -0.2 | 0 | -0.7 | -0.8% | -2% | 8%
COc1ccc2[nH]c(C)c(CCNC(=S)Nc3cc(C)cc(C)c3)c2c1 | -1.5 | -3 | 1.4 | -5.3% | 6% | 9%
COc1ccc(C(=O)NCc2nc(-c3cccc(C)c3)no2)cc1OC | . | 20 | 2.0 | -2.6% | . | .
CCOC(=O)N1CCN(C(=O)c2cccn3c(=O)c4c5c(sc4nc23)CCCC5)CC1 | -3.5 | -4 | 0.3 | -7.8% | 14% | -6%
CN1CCN(C(=O)c2c(O)c3cccc4c3n(c2=O)CCC4)CC1 | 3.3 | 5 | -0.2 | -8.0% | -27% | 5%
CCOC(=O)C(=O)NNc1ccccc1OC | 2.2 | -13 | -0.2 | -1.0% | 9%[15.4 µM] | -10%
CCn1c(CN2CCN(CCO)CC2)nc2ccccc21 | -1.9 | -11 | 0.6 | -2.0% | 7% | -11%
CC(=O)OC1c2ccccc2C(=O)N1c1ccccc1C (configuration not stated) | -1.0 | 24 | 0.3 | -2.0% | 1% | 5%
Cc1cccc(NC(=O)CCCc2ccccc2)c1 | -6.0 | . | . | 1.2% | -8% | 2%
O=C(CCl)c1ccc(Cc2ncc(C(F)(F)F)cc2Cl)s1 | 0.6 | 14 | 0.6 | -25% | 18% | 0%
Cc1cc(S(=O)(=O)Nc2cc3c(cc2Cl)n(C)c(=O)c(=O)n3C)ccc1F | . | -8 | 0.1 | -4.5% | . | .
CCCCOC(=O)c1ccc(NC(=O)Cc2coc3c(C)c(C)ccc23)cc1 | . | 2 | 3.2 | -4.3% | . | .
O=C1C=C(c2ccccc2)C[C@H](c2cccs2)[C@H]1n1nnc([N+](=O)[O-])n1 | 1.8 | 4 | 1.0 | -1.8% | 15% | -3%

Following part
SMILES | Menin-MLL FL inh | TRPML1 inh | TRPML1 agonist | ClpP mod | gsp ag | gsp antagonist
CC(NC(=O)CCNC(=O)c1ccc(Br)cc1)c1ccc(-n2ccnc2)cc1 (configuration not stated) | . | 5 | -0.1 | -1.8% | -11% | -1%
COc1ccc(CN(Cc2cccn2C)S(=O)(=O)c2ccc(C)cc2)cc1 | -2.9 | 4 | 3.8 | . | -14%[15.4 µM] | -15%
CC1(C)CSC(=NCCc2ccccc2)N1 | -2.3 | 9 | -0.7 | . | 10%[15.4 µM] | 7%
Cc1ccc2c(C(=O)CN3CCN(C4CCCCC4)CC3)c(C)[nH]c2c1 | 0.9 | -20 | 1.4 | -0.7% | 5% | 1%
Cn1c(/C(C#N)=C/c2ccccc2Br)nc2ccccc21 | . | 12 | 0.0 | -5.3% | . | .
CCN(C(=O)CSc1nnc(Nc2ccccc2)s1)C1CCS(=O)(=O)C1 (configuration not stated) | -5.2 | 15 | 0.0 | 2.4% | -20% | 0%
NC(=O)CCn1c(=O)oc2ccccc21 | 2.1 | 0 | -0.1 | 1.2% | 0% | 10%
CC(=O)NCC1CCCN(Cc2cn(-c3ccccc3)nc2-c2ccc3c(c2)OCO3)C1 (configuration not stated) | -3.6 | -2 | 0.4 | 0.5% | 6%[15.4 µM] | -3%
O=C(/C=C/c1cccs1)NC(=S)NNC(=O)c1ccccc1O | 0.4 | -21 | 6.8 | . | 2% | -17%
Clc1ccc(CSc2nnc3c(n2)[nH]c2ccccc23)cc1 | 4.2 | -11 | 0.0 | -0.5% | ? | 0%
NS(=O)(=O)c1ccc(CCNC(=S)NC2CCCC2)cc1 | 0.8 | 16 | 0.3 | -2.3% | -14% | -2%
CC(C)C(=O)Nc1cccc(-c2cn3ccsc3n2)c1 | 5.3 | -2 | 0.8 | -1.4% | -42%[inhibitor] | 1%

Sorted by the number under Menin-MLL FL inh (descending): 6 of the compounds above.
SMILES,Menin-MLL FL inh
O=C(C[n+]1ccccc1)Nc1ccccc1[N+](=O)[O-],1.1
CCC(Oc1ccccc1F)C(=O)NCCN1CCOCC1 (configuration not stated),0.2
Cc1cc(=O)oc2c3c(cc(OCC(=O)NCC4CCC(C(=O)O)CC4)c12)OC(C)(C)CC3 (configuration not stated),-1.0
CCCCn1nc2cc(C(=O)NCc3cc(C(F)(F)F)cc(C(F)(F)F)c3)ccc2c1OCC,-1.1
Cc1c(NC(=O)C(C)OC(=O)CCC2CCCC2)c(=O)n(-c2ccccc2)n1C (configuration not stated),-1.9
COc1ccc(CN(Cc2cccn2C)S(=O)(=O)c2ccc(C)cc2)cc1,-2.9

Part of the list above, with tabs.
structure	Menin-MLL FL inh	TRPML1 inh	TRPML1 agonist	ClpP mod	gsp ag	gsp antagonist
NC(=O)CCn1c(=O)oc2ccccc21	2.1	0	-0.1	1.2%	0%	10%
CC(=O)NCC1CCCN(Cc2cn(-c3ccccc3)nc2-c2ccc3c(c2)OCO3)C1 (configuration not stated)	-3.6	-2	0.4	0.5%	6%[15.4 µM]	-3%
O=C(/C=C/c1cccs1)NC(=S)NNC(=O)c1ccccc1O	0.4	-21	6.8	.	2%	-17%
